GLA inh pH 4.5: blocks human alpha-galactosidase A at pH 4.5 | purified enzyme, 4-MU-alpha-Gal fluorescence, pH 4.5 | activity change, negative = inhibition, % at 105 µM | 230,000 tested, under 10 active; inconclusive = small, poorly fitted or top-dose-only inhibition, or a rising curve; inactive = flat fitted curve, though single readings scatter; no compound was filed as active;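 further: 0% = full activity with enzyme and -100% = basal without enzyme; dose as in the result columns while the protocol names 77 µM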
Rango release inh: inhibition of RanGTP-driven Rango-importin beta dissociation | Biochemical FRET Rango-importin beta, RanGTP-induced dissociation | Potency, µM (doses to about 46.1 µM), inactives show at the top dose activity change, negative = inhibition | 0.071% of 340,000 active; active means falling FRET ratio curve, often poorly fitted, with flat reads before Ran was added; inconclusive means other falling curves, or compound fluorescence or quenching; inactive means flat or rising ratio curve;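 further: potency means the concentration at half of the fitted maximal effect; % of control where 0% means no effect; nearly all actives have a fitted effect of over 45% in size; -100% = wells without RanGTP and RCC1; the record marks most hits as doubtful in a second field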
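Rango/importin beta premix (0.1/0.25 uM final), PBS + 1 mM DTT + 0.02% Tween-20 + 0.1% BSA; cpd 5 min RT; FRET pre-read; + RanGTP-RCC1 (0.6 uM Ran, 2 mM GTP, 0.2 uM RCC1); 45 min RT; FRET post-read, ex 430, em 486/530 nm.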
Rango-impB inh: Rango-importin beta binding inhibition | Q14974 | Rango CFP/YFP FRET sensor + importin beta, 45 min | Potency, µM (titrated, usually from 92.2 µM), without a hit: top-dose inhibition of complex formation | AID 540263 | 0.031% of 340,000 active; active = rising FRET ratio curve, often small or poorly fitted; inconclusive = mostly compound fluorescence or quenching in the first reads; inactive = flat curves in all reads;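 further: potency means the concentration at half of the fitted maximal effect; 0% = DMSO wells and 100% = buffer wells lacking importin beta; nearly all actives have a fitted effect of over 15% in size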
Target sequence (Q14974 whole entry, looked up): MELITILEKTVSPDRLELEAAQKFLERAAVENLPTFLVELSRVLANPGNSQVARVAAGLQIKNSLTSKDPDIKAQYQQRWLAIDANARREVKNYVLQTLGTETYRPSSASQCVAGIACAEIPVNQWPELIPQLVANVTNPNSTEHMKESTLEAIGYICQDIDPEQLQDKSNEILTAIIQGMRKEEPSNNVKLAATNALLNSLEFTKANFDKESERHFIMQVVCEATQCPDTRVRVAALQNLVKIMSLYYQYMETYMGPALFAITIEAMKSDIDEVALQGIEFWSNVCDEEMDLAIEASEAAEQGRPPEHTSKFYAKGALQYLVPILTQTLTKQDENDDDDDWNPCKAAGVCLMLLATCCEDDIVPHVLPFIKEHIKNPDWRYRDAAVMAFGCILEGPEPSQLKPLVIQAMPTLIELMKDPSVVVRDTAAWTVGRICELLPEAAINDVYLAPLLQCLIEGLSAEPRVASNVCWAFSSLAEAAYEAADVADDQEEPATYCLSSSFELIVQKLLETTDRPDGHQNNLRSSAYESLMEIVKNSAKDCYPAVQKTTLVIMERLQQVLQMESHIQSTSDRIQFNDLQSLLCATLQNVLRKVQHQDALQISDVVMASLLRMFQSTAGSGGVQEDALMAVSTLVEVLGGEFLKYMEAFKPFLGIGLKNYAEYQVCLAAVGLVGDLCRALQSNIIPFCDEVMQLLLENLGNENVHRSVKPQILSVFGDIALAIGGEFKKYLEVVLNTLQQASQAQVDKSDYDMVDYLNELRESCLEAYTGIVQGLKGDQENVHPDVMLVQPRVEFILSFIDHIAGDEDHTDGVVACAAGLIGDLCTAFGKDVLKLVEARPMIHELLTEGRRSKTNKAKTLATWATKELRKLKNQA
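FRET biosensor Rango (snurportin 1 IBB between N-terminal EYFP and C-terminal Cerulean), 50 nM in PBS/1 mM DTT/0.02% Tween-20/0.1% BSA, preincubated 5 min RT with compound; 0.125 microM importin beta added, 45 min RT, CFP/YFP FRET ratio read.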
miR-21 FLuc: miR-21 reporter, rising signal; 340,000 tested, under 10 active; HeLa miR-21 FLuc reporter, luciferase, 48 h; AID 2288; Potency, µM (highest dose often 38.3 µM), for inactives: top-dose reporter change, positive = more light; active = well fitted rising curve with a large enough effect; inconclusive = small, poorly fitted or top-dose-only effect; inactive = no such curve, though single readings can be large or run the other way;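 further: % of control where 0% means no effect; miR-21 action dims this reporter so a rising signal means less miR-21 action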
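Using DMEM plus 10% FBS, HeLa miR-21-FLuc cells are incubated with test compounds (final up to about 40uM) for 48 hours; firefly luciferase signal is then imaged following reagent-mediated lysis.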
Numbers without * were called inactive; ? = inconclusive; nt = no result given. An excerpt (hit frequency here may not be typical).

No. | SMILES | GLA inh pH 4.5 | Rango release inh
1 | COc1cc(CN2CCN(Cc3cn(C)c4ccccc34)CC2CCO)cc(OC)c1 (centres undefined) | nt | -6%
2 | N#Cc1c2n(c(=S)n(-c3ccccc3)c1=O)CCCCC2 | 4 | -5%
3 | COc1ccc2o/c(=N\O)c(C(=O)Nc3ccc(C)cc3)cc2c1 | -5 | -8%
4 | COC(=O)c1cn(Cc2c(C)cc(C)cc2C)nn1 | 5 | 7%
5 | CCCNc1ncnc2c1cnn2C1CCCCO1 (centres undefined) | nt | -6%
6 | O=C(COc1ncnc2cc(Cl)ccc12)c1ccc2c(c1)OCCO2 | 3 | -8%
7 | Cc1cc(C)nc(SCC(=O)Nc2ccc(S(=O)(=O)Nc3cc(C)on3)cc2)n1 | nt | 29%
8 | CCOc1ccc(CCNC(=O)COC(=O)c2cc(OC)c(OC)cc2[N+](=O)[O-])cc1OCC | nt | 12%

No. | Rango-impB inh | miR-21 FLuc
1 | 0.6% | 3%
2 | -3.0% | -6%
3 | 2.0% | -18%
4 | 3.9% | -7%
5 | -0.8% | nt
6 | -2.1% | -35%
7 | -1.6% | nt
8 | -1.0% | nt

Continuation:
No. | SMILES | GLA inh pH 4.5 | Rango release inh
9 | O=C(CCN1C(=O)c2ccccc2S1(=O)=O)N1CCN(c2ccccc2)CC1 | -2 | -1%
10 | COc1cccc(-c2nnc(SCN3C(=O)c4ccccc4C3=O)n2C)c1 | -8 | 10%
11 | COc1ccc(NC(=O)c2nn(C)c(=O)c3ccccc23)cc1S(=O)(=O)Nc1ccccc1Cl | -7 | 5%
12 | CC1=C(C(=O)OC(C)C)C(c2c(O)ccc3ccccc23)NC(=O)N1 (centres undefined) | -1 | 5%
13 | COc1ccc(-c2csc(C)n2)cc1 | -4 | -10%
14 | COc1ccc(C(=O)NCc2cn3c(C)csc3n2)cc1OC | 1 | -7%
15 | O=C(O)C1C2C=CC(C2)C1C(=O)Nc1ccc(C(=O)N2CCCCC2)c(Cl)c1 (centres undefined) | -3 | 1%
16 | CCOC(=O)N1CCC(NC(=O)c2ccc3c(c2)sc2nc(-c4ccc(OC)cc4)cn23)CC1 | -1 | nt

No. | Rango-impB inh | miR-21 FLuc
9 | 2.2% | -6%
10 | 4.1% | -11%
11 | -2.6% | -1%
12 | 0.3% | -6%
13 | 0.3% | -40%
14 | 1.0% | -10%
15 | -1.0% | 0%
16 | nt | -22%

(cont.)
No. | SMILES | GLA inh pH 4.5 | Rango release inh
17 | OC(Cc1cccnc1)c1ccccc1 (centres undefined) | nt | 0%
18 | CCc1ccc2c(c1)CCCN2C(=O)c1ccccc1C(=O)O | -3 | ?
19 | Cc1ccc(CC(=O)NCC2CCCCC2)cc1 | nt | 16%
20 | O=C(CCc1nnc(CCC2CCCCC2)o1)NCCc1ccccn1 | 7 | -9%
21 | CCn1c(Cc2ccc(OC)cc2)nnc1SCC(=O)NC1CC1 | nt | -2%
22 | O=[N+]([O-])c1ccc(C(O)CN2CCN(c3ccccc3)CC2)cc1 (centres undefined) | nt | -17%
23 | O=C(Nc1nnc(CCc2ccccc2)s1)c1ccc(F)cc1 | nt | -1%
24 | O=C(NC1CCCC1)C1CCN(C(=O)c2cc(Cl)ccc2Cl)CC1 | nt | 8%

No. | Rango-impB inh | miR-21 FLuc
17 | -2.4% | nt
18 | ? | -2%
19 | 6.2% | -52%
20 | 1.0% | 0%
21 | -1.9% | -1%
22 | -0.6% | -2%
23 | -0.8% | 1%
24 | 2.6% | -2%

More compounds.
No. | SMILES | GLA inh pH 4.5 | Rango release inh
25 | Cc1cc(C(=O)CN2CCCCC2)c(C)n1-c1ccc(F)cc1 | 6 | 4%
26 | O=C(CN1CCN(Cc2ccccc2)CC1)NC(c1ccccc1)c1ccccc1 | -6 | 6%
27 | O=C(NCCN1CCOCC1)c1ccccc1[N+](=O)[O-] | 1 | 4%
28 | COc1ccccc1N/C=C/C(=C(C#N)C#N)N(C)C | 8 | -18%
29 | COc1cc(NC(=O)C2C3C=CC(C3)C2C(=O)O)ccc1NC(=O)c1ccccc1 (centres undefined) | nt | -11%
30 | Cc1ccc(C(=O)N2C3C=CC(C3)C2(C(F)(F)F)C(F)(F)F)cc1 (centres undefined) | 0 | 3%
31 | O=C(Nc1ccsc1C(=O)O)c1ccccc1 | nt | -13%
32 | O=S(=O)(Nc1ccc(F)cc1Cl)c1ccc(-c2cnc(C3CC3)o2)cc1 | nt | 10%

No. | Rango-impB inh | miR-21 FLuc
25 | 0.9% | -37%
26 | 2.1% | 1%
27 | 0.0% | -3%
28 | ? | 1%
29 | ? | -17%
30 | 4.6% | 0%
31 | 2.4% | -28%
32 | -1.1% | 21%

Other compounds.
No. | SMILES | GLA inh pH 4.5 | Rango release inh
33 | Cc1cc(C)cc(NC(=S)N2CCC(NC(=O)c3ccco3)CC2)c1 | nt | -5%
34 | CC1(C)CC[C@@]23CC[C@]4(C)[C@@](OC2=O)(C3C1)[C@H]1O[C@H]1C1[C@@]2(C)CC[C@H](O)C(C)(C)C2CC[C@]14C (some centres undefined) | nt | 9%
35 | NC(=O)C1CCN(C(=O)c2ccc(Cl)c(S(=O)(=O)NCc3ccco3)c2)CC1 | nt | 17%
36 | O=C(COc1cccc2ccccc12)NNC(=O)Nc1ccccc1 | -18 | -3%
37 | CCC(c1nnc(SC(C)C(=O)NC2CC2)n1-c1ccc(OC)cc1)N(C)C (centres undefined) | nt | -4%
38 | Cc1cc(NC(=O)CSc2ccccn2)cc(NC(=O)CSc2ccccn2)c1 | nt | -6%
39 | CCCCC(=O)NCCNc1nc2c(c(=O)n(C)c(=O)n2C)n1Cc1ccc(F)cc1 | 1 | -6%
40 | Cc1cccc(C)c1NC(=O)CNC(=O)CN1C(=O)NC2(CCc3ccccc32)C1=O (centres undefined) | nt | -21%

No. | Rango-impB inh | miR-21 FLuc
33 | -0.9% | 0%
34 | -0.3% | nt
35 | 9.1% | nt
36 | -0.9% | 20%
37 | -1.0% | nt
38 | -0.6% | -9%
39 | -1.1% | -2%
40 | -5.0% | nt

Single records (already shown). Order of screens: GLA inh pH 4.5	Rango release inh	Rango-impB inh	miR-21 FLuc
COc1ccc2o/c(=N\O)c(C(=O)Nc3ccc(C)cc3)cc2c1 across the screens: -5	-8%	2.0%	-18%
COc1ccccc1N/C=C/C(=C(C#N)C#N)N(C)C across the screens: 8	-18%	?	1%

(continued)
No. | SMILES | GLA inh pH 4.5 | Rango release inh
41 | Cc1c(CCC(=O)O)c(=O)oc2c(C)c3occ(-c4ccc(Br)cc4)c3cc12 | nt | 23%
42 | COc1ccccc1-c1cn(C(C)(C)C)nc1C | -3 | -10%
43 | CCc1c(C(=O)NNC(=S)NCC2CCCO2)csc1C (centres undefined) | -4 | 15%
44 | CC(C)(C)c1ccc(OCC(=O)NNC(=O)Cc2cccs2)cc1 | -17 | 0%
45 | COC(=O)c1ccc(OCC(=O)c2ccc(C)c(C)c2)cc1 | -7 | 19%
46 | CCOC(=O)c1oc2ccccc2c1NC(=O)c1cc(OC)cc(OC)c1 | 3 | -6%
47 | CCCCNc1c(NC(C)=O)c(=O)oc2ccccc12 | 1 | 0%
48 | Cc1cccc(NC(=O)c2cccc([N+](=O)[O-])c2O)c1C | nt | -11%

No. | Rango-impB inh | miR-21 FLuc
41 | -1.8% | -3%
42 | -2.9% | -1%
43 | -1.0% | -9%
44 | 5.1% | -6%
45 | 0.4% | -50%
46 | -1.6% | -4%
47 | 1.0% | -8%
48 | 1.3% | nt

Next part
No. | SMILES | GLA inh pH 4.5 | Rango release inh
49 | Cn1nnnc1Sc1ncnc2scc(-c3ccc(C(F)(F)F)cc3)c12 | nt | 12%
50 | CN(C)c1ncc(CN2CCC(CO)(CCCc3ccccc3)CC2)s1 | -3 | 21%
51 | Cc1ccc(NC(=O)N2CCC(C(=O)NCc3ccccc3)CC2)cc1 | -3 | -11%
52 | Cn1c(=O)oc2cc(S(=O)(=O)NCc3ccc(F)cc3)ccc21 | nt | -2%
53 | CC(C)[C@H](NC(=O)C1CCN(S(=O)(=O)c2ccccc2)CC1)C(=O)NCc1ccccn1 | nt | 4%
54 | COC(=O)c1c(C(=O)OC)c(-c2ccc(Cl)cc2)n2c1CS(=O)(=O)C2 | 1 | ?
55 | CC(=O)c1cccc(N(C(=O)CNC(=O)c2cccs2)C(C(=O)NCC2CCCO2)c2ccccc2)c1 (centres undefined) | nt | 8%
56 | O=C(CCN1CCCC1)Nc1ccccc1 | -4 | 18%

No. | Rango-impB inh | miR-21 FLuc
49 | 1.9% | nt
50 | 0.2% | -4%
51 | 2.5% | 0%
52 | 0.1% | -7%
53 | -1.7% | 0%
54 | 3.6% | 2%
55 | -0.6% | 0%
56 | 4.9% | -3%

Continued:
No. | SMILES | GLA inh pH 4.5 | Rango release inh
57 | Cc1cc(C(=O)NCC23CC4CC(CC(C4)C2)C3)c(C)o1 | 13 | nt
58 | C=CCn1c(=O)c2ccccc2n2c(SCC(=O)NCc3cccs3)nnc12 | 3 | 0%
59 | CC(=O)CSc1ncnc2scc(-c3ccc(F)cc3)c12 | -23 | -4%
60 | Cc1noc(C)c1C(=O)NC1CCCc2ccccc21 (centres undefined) | -3 | -3%
61 | Cc1sc(NC(=O)c2ccco2)nc1-c1ccccc1 | -5 | 32%
62 | C=CCOC(=O)CC(NC(=O)c1ccccc1)c1ccccc1 (centres undefined) | 5 | 5%
63 | O=S(=O)(c1cccc(-c2nc3n(n2)Cc2ccccc2-3)c1)N1CCCC1 | -2 | 2%
64 | C=CCn1c(SCC(=O)Nc2cccc(S(N)(=O)=O)c2)nnc1C1CCCCC1 | nt | 11%

No. | Rango-impB inh | miR-21 FLuc
57 | nt | -5%
58 | -3.9% | 3%
59 | -1.1% | -24%
60 | 5.8% | -4%
61 | 0.6% | -41%
62 | ? | -6%
63 | ? | 0%
64 | 0.2% | nt

Next results follow:
No. | SMILES | GLA inh pH 4.5 | Rango release inh
65 | O=[N+]([O-])c1ccccc1S(=O)(=O)Nc1ccn(Cc2c(F)cccc2Cl)n1 | nt | 11%
66 | Cc1cccc(NC(=S)NCCc2ccc(F)cc2)c1C | 4 | -15%
67 | CCOc1ccccc1NC(=O)COC(=O)C(CC)c1ccccc1 (centres undefined) | 1 | 5%
68 | CCN1C(=O)C2(C(C#N)=C(N)Oc3n[nH]c(COC)c32)c2ccccc21 (centres undefined) | 7 | -21%
69 | Cc1nc(N2CCC(C)CC2)c2oc3ccccc3c2n1 | 3 | 13%
70 | Oc1ccc(-c2cn3ccccc3n2)cc1 | 1 | 7%

No. | Rango-impB inh | miR-21 FLuc
65 | 1.1% | -7%
66 | 0.1% | -2%
67 | -0.4% | -7%
68 | 4.8% | -4%
69 | 2.4% | 17%
70 | -0.8% | 0%

In the list so far, these have a Cl atom.
No. | SMILES | GLA inh pH 4.5 | Rango release inh
6 | O=C(COc1ncnc2cc(Cl)ccc12)c1ccc2c(c1)OCCO2 | 3 | -8%
11 | COc1ccc(NC(=O)c2nn(C)c(=O)c3ccccc23)cc1S(=O)(=O)Nc1ccccc1Cl | -7 | 5%
15 | O=C(O)C1C2C=CC(C2)C1C(=O)Nc1ccc(C(=O)N2CCCCC2)c(Cl)c1 (centres undefined) | -3 | 1%
24 | O=C(NC1CCCC1)C1CCN(C(=O)c2cc(Cl)ccc2Cl)CC1 | nt | 8%
32 | O=S(=O)(Nc1ccc(F)cc1Cl)c1ccc(-c2cnc(C3CC3)o2)cc1 | nt | 10%
35 | NC(=O)C1CCN(C(=O)c2ccc(Cl)c(S(=O)(=O)NCc3ccco3)c2)CC1 | nt | 17%
54 | COC(=O)c1c(C(=O)OC)c(-c2ccc(Cl)cc2)n2c1CS(=O)(=O)C2 | 1 | ?
65 | O=[N+]([O-])c1ccccc1S(=O)(=O)Nc1ccn(Cc2c(F)cccc2Cl)n1 | nt | 11%

No. | Rango-impB inh | miR-21 FLuc
6 | -2.1% | -35%
11 | -2.6% | -1%
15 | -1.0% | 0%
24 | 2.6% | -2%
32 | -1.1% | 21%
35 | 9.1% | nt
54 | 3.6% | 2%
65 | 1.1% | -7%

Screens deposited in PubChem by National Center for Advancing Translational Sciences (NCATS).
